MbtI inh = blocks the Mycobacterium tuberculosis siderophore enzyme MbtI; P9WFX0; purified MbtI enzyme, fluorescence intensity read-out; inhibition, %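 (about 17 µg/mL by stock and volumes)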; actives 0.89% (n = 100,000); AID 493033;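 active = above 50% in both replicates, above 80% if mildly self-fluorescent; inactive = the rest, strongly fluorescent compounds included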;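 note: 0% = mean of negative and 100% = mean of positive controls; one replicate is shown; some compounds called inactive have numbers as strong as hits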
Target sequence (P9WFX0 whole entry, looked up): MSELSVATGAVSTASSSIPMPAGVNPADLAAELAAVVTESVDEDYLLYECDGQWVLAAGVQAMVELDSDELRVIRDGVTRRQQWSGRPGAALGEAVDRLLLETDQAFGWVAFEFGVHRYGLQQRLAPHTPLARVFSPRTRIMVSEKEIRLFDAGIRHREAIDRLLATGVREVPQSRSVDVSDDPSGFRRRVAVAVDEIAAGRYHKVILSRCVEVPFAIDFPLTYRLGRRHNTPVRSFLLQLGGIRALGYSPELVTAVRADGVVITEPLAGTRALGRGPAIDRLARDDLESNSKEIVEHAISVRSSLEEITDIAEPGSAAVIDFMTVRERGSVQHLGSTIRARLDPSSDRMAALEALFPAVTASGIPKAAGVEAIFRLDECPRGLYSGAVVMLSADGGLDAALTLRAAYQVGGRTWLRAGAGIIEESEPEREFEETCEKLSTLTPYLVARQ
Mtb MenB inh = Mtb MenB enzyme inhibition. P9WNP5. MenB enzyme assay, absorbance read-out; some hits fall short of the stated cut. inhibition, %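 (about 12 µg/mL by stock and volumes)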. actives 0.43% (n = 100,000);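 active = mean of two replicates above 30%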;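 note: 0% = no compound and 100% = wells with inactive enzyme; the first replicate is given; strong numbers were not always called active; inactives centre near -10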
PV pol inh = inhibitors of poliovirus RNA polymerase binding and polymerization; P03300; poliovirus polymerase elongation, fluorescence polarization; active compounds read low; % elongation, % (compound at 16.7 µg/mL); actives 0.66% (n = 150,000); AID 588519; in the data active = % elongation below about 90%; note: some results filed as inactive read as strong as hits
Target sequence (P03300 1749-2209 limits assumed): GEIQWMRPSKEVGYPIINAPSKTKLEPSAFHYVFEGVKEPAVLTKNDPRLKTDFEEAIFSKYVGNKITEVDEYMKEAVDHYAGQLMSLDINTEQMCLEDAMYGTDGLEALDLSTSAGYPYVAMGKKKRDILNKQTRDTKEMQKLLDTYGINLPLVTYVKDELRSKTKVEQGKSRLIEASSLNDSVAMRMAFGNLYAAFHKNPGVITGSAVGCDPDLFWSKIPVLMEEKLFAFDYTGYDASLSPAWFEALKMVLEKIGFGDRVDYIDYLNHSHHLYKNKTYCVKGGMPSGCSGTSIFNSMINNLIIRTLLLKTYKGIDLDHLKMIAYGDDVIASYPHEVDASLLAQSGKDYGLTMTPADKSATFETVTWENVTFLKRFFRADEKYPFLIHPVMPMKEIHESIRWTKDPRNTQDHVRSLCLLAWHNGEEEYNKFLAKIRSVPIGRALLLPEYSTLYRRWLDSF
PV pol inh intensity = recorded beside PV pol inh, whose call it bears; % elongation; measured here: total intensity read-out; formula for this scale not given here;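 total fluorescence in place of polarization; lower means less elongation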
* = called active by the depositor; . = not tested or not shown; & = joins results of further samples.

SMILES | MbtI inh | Mtb MenB inh | PV pol inh | PV pol inh intensity
Cc1ccc(NCCNc2ccc(C)cc2)cc1 | . | -66 | 103 | 83
CCOC(=O)c1nc2ccccc2c(=O)n1-c1ccc(Br)cc1 | -14 | . | 101 | 99
CC(=O)OC1CCC2C3CC[C@H]4C[C@@H]5C[C@@H]5[C@H](O)C4(C)C3CCC12C (some centres not stated) | -9 | -8 | 106 | 113
COc1cccc(C2CC(C(F)(F)F)n3ncc(C(=O)N4CCCCC4C)c3N2)c1 (configuration not stated) | . | -25 | 111 | 106
CCc1ccc(NC(=O)Cn2c(=O)n(CCC(=O)NCc3ccccc3)c(=O)c3sccc32)cc1 | -6 | 1 | 100 | 101
O=C(COC(=O)c1c2c(nc3ccccc13)CCC2)Nc1ccc2c(c1)OCCO2 | -4 | -37 | 109 | 100
CC1(C)C(=O)OC2(c3ccc(Cl)cc3)C1OC(=O)C2(C)C (configuration not stated) | -7 | -10 | 102 | 105
c1ccc(-c2nc(NN3CCCCC3)nc3ccccc23)cc1 | -6 | -31 | 101 | 110
O=C(NC(c1ccccc1)c1ccccc1)c1ccco1 | . | -12 | 104 | 105
COc1ccc(-n2c(C)nc3ccccc3c2=O)cc1 | 1 | 1 | 101 | 105
CCOC(=O)c1cnc(SC)nc1-c1ccccc1 | 10 | 3 | 100 | 98
OC(CNCC1COc2ccccc2O1)COC1CCCc2ccccc21 (configuration not stated) | -11 | -17 | 104 | 109
CN1CCCN(C(=O)c2ccc(S(=O)(=O)N3CCCCC3)cc2)c2nc3ccccc3nc21 | -3 | -31 | 106 | 106
COc1ccccc1N1C(=O)c2ccc(C(=O)Nc3cc(C)on3)cc2C1=O | . | -12 | 112 | 115
CCC1Cc2c(nc3c4c(nc(N5CCOCC5)c(C#N)c24)NC2(CCCCC2)N3)O1 (configuration not stated) | 124 | 1 | 110 | 108
CC(=O)Oc1ccc2cc(-c3nc4c(s3)CCc3ccccc3-4)c(=O)oc2c1 | -53 | -17 | 71 | 194
Cc1c(Nc2ncnc3sc4c(c23)CCCC4)c(=O)n(-c2ccccc2)n1C | -5 | -17 | 101 | 98
CN1C=CC=C/C1=C(/C#N)C(=O)NC1CCCCC1 | 20 | -209 | 104 | 105
CCOC(=O)c1sc(=Nc2ccccc2)n(Cc2ccccc2)c1C | 11 | -29 | 101 | 101
CCCN1C(=S)NS(=O)(=O)c2ccccc21 | -26 | 8 | 98 | 100
CC(C)(C)NC(=O)c1c(F)cccc1F | -3 | -4 | 100 | 100
N#Cc1ccc(Cn2cc(C(=O)c3ccccc3)c3ccccc32)cc1 | -11 | -18 | 100 | 103
CCC(C)(C(=O)Nc1cccc(C)c1)N1CCC1=O (configuration not stated) | . | -11 | 107 | 111
CC1CN(S(=O)(=O)c2c[nH]c(=O)[nH]c2=O)CC(C)O1 (configuration not stated) | 17 | -5 | 100 | 104
COc1ccc(C2=Cc3ccccc3C(C)(C)O2)cc1 | 5 | -36 | 103 | 103
CS(=O)(=O)N(CC(=O)Nc1ccc(S(=O)(=O)N2CCCCC2)cc1)c1ccccc1F | -13 | -10 | 98 | 100
CC1=C(/C=C/C(C)=C/C=C/C(C)=C/C(=O)O)C(C)(C)CCC1 | -7&12&-6 | 11&-1&0 | 101&99&98&99 | 102&102&102&101
COc1ccc(N2CCN(C(=O)COC(=O)c3cc[n+]([O-])cc3)CC2)cc1 | -24 | 4 | 102 | 105
COC(=O)c1ccc(COC(=O)Cn2c(C)csc2=O)o1 | -10 | -34 | 106 | 103
O=C(Cc1c(Cl)cccc1Cl)N1CCN(S(=O)(=O)c2cccs2)CC1 | -3 | 1 | 101 | 105
CCOC(=O)c1cc(CSc2nc3ncccc3[nH]2)on1 | 11 | 4 | 100 | 102
COc1ccc2nc(NC(=O)C(F)F)sc2c1 | 47 | -11 | 103 | 107
N#Cc1cccnc1N1CCCN(C(=O)Nc2ccccc2)CC1 | 106 | -17 | 104 | 101
CC(=O)Nc1ccc(NC(=O)c2ccc(CS(C)(=O)=O)cc2)cc1 | 23 | -36 | 108 | 95
CCCC1=NN2C(=N)/C(=C/c3ccc(OC(=O)c4cccs4)c(OC)c3)C(=O)N=C2S1 | -8 | -28 | 98 | 103
COc1ccc(-n2c(=S)n(CN3CC(C)OC(C)C3)c3ccccc32)cc1 (configuration not stated) | 9 | -25 | 99 | 99
O=C(OCC(=O)N1CCCCC1)c1n[nH]c2ccccc12 | 108 | -25 | 100 | 111
CCCOc1ccccc1/C=C1\SC(N2CCN(C(C)=O)CC2)=NC1=O | 9 | -27 | 103 | 104
CN1/C(=C\C(=O)CSc2nc(N)cc(=O)[nH]2)C(C)(C)c2ccccc21 | -18 | -53 | 106 | 112
COc1cc(OC)c(NC(=O)CS(=O)(=O)Cc2nc(-c3ccc(C)cc3)oc2C)cc1Cl | -3 | 3 | 100 | 103
CN1C(=O)/C(=C/c2cccc(Cl)c2)Sc2ccc(C(=O)N3CCCCC3)cc21 | -1 | -13 | 100 | 94
O=C(CNc1ccc(Cl)cc1)c1cc2ccccc2oc1=O | -4 | . | 103 | 100
O=c1[nH]c2cc(Br)cnc2[nH]1 | 1 | -19 | 66* | 102*
CCOC(=O)c1cc2c(=O)n3cccc(C)c3nc2n(C2CCCC2)c1=N | 60 | -42 | 100 | 101
CC12CCC(C(=O)O)(C/C1=N\N)C2(C)C (configuration not stated) | -6 | -1 | 101 | 102
Cc1ccc(C(=O)OCc2c(C)noc2C)c(C)c1 | 6 | -30 | 110 | 104
CCN(CC)S(=O)(=O)c1ccc(C(=O)Nc2cc(C)c3c(=O)oc4ccccc4c3n2)cc1 | 7 | 6 | 99 | 102
O=C(CSc1nnc(-c2ccc(F)cc2)o1)N(Cc1nnc(-c2ccc(Cl)cc2)o1)C1CC1 | 9 | -14 | 104 | 103
COc1ccc(S(=O)(=O)N(C)CCc2ccc(OC)c(OC)c2)cc1 | -4 | -32 | 106 | 108
O=C(c1cccc(F)c1)c1ccc2c(c1)CCCO2 | 2 | -30 | 106 | 101
COc1ccc(OC)c(NC(=O)c2c(NC(=O)CNCc3ccco3)sc3c2CCC3)c1 | 38 | -50 | 101 | 104
CC(C)(CNC(=O)CSc1ccc(F)cc1)N1CCOCC1 | -7 | -26 | 103 | 105
NS(=O)(=O)c1ccc(Nc2nc(-c3cccnc3)cs2)cc1 | -3 | -22 | 100 | 101
CCS(=O)(=O)Nc1ccc(C2=NN(S(=O)(=O)c3ccccc3)C(c3ccccc3)C2)cc1 (configuration not stated) | 7 | -10 | 106 | 111
CCC(C)C(N)C(=O)N1CCOCCN(C(=O)C(N)C(C)CC)CCOCC1 (configuration not stated) | -12 | -65 | 102 | 103
O=C(CCCn1c(=O)oc2ccccc21)NCCN1C(=O)S/C(=C\c2ccc(F)cc2)C1=O | -1 | -10 | 103 | 99
CC(C)CNC(=O)[C@@H]1CCCN1C(=O)c1cccs1 | -9 | -24 | 105 | 105
O=S1(=O)N=C(N2CCN(S(=O)(=O)c3cccs3)CC2)c2ccccc21 | -9 | 5 | 106 | 113
Nc1nc(COc2ccc3ccccc3c2)cs1 | -9 | -20 | 103 | 109
CCOC(=O)c1ccc(NC(=O)CCc2c[nH]c3ccccc23)cc1 | 2 | -24 | 104 | 103
Carrying on:
SMILES | MbtI inh | Mtb MenB inh | PV pol inh | PV pol inh intensity
COc1ccc(C(=O)NCCCN2CCOCC2)cc1S(=O)(=O)N1CCCc2ccccc21 | -7 | -24 | 100 | 108
COc1cc2c(cc1OC)CN(Cc1cc(=O)oc3c(C)c(C)ccc13)CC2 | -21 | -6 | 105 | 113
O=C(NCc1ccc2c(c1)OCO2)c1cc2c(s1)CSC2 | 17 | 16 | 101 | 102
O=C(O)c1cccnc1SCc1ccc(F)cc1 | 4 | 5 | . | .
Cc1ccc(S(=O)(=O)NC(=O)NC2CCN(c3nccc(C(F)(F)F)n3)CC2)cc1 | 32 | -9 | 109 | 114
Clc1ccc(-c2cnnc(-c3ccccc3)n2)cc1 | -10 | -97 | 104 | 105
COc1ccc(C(=O)NC(C)C(c2cccs2)N2CCOCC2)cc1 (configuration not stated) | 0 | -4 | 103 | 103
CN(Cc1ccc2c(c1)OCO2)C1CCCCC1 | . | -1 | 102 | 92
CCCSc1nc2c([nH]c3ccccc32)c(=O)n1-c1cc(C)cc(C)c1 | 4 | -22 | 102 | 99
Cc1ccsc1/C=N/n1cnc2scc(-c3cccs3)c2c1=O | -5 | -17 | 103 | 111
CCOC(=O)C1=C(O)C(=O)N(C(C)(C)C)C1 | . | 5 | 95 | 92
Cc1cc(/C=C(/C#N)c2ccc(Cl)cc2)c(C)n1C(C)C | -7 | -46 | 101 | 97
COc1ccc(-c2nc3sc(-c4ccc(OC)cc4)nc3s2)cc1 | 84* | 26* | 100 | 98
CC1CN(c2ccc(NC(=O)c3ccco3)cc2C(=O)O)CC(C)O1 (configuration not stated) | -4 | -6 | 106 | 108
CC1=C(C(=O)Nc2ccc(CC(=O)N3CCN(c4ccccc4F)CC3)cc2)SCCO1 | 0 | -24 | 103 | 104
Cc1cccc(OCC(N)=O)c1 | -4 | -16 | 44 | 241
Cc1ccc2c(c1)CCCN2C(=O)c1ccoc1C | -7 | 0 | 100 | 98
CN1C(=O)S/C(=C/c2ccc(OCc3ccc(C(=O)O)o3)cc2)C1=O | 1 | -30 | 102 | 101
CN(C)c1ccc(C(C(=O)NC2CCCCC2)N(Cc2ccco2)C(=O)Cc2c[nH]c3ccccc23)cc1 (configuration not stated) | 25 | -43 | 104 | 102
NC(=O)CNC(=O)Cc1c(Cl)cccc1Cl | -6 | -7 | 101 | 106
O=c1[nH]c(=O)n([C@H]2CC(O)[C@@H](CO)O2)cc1I (some centres not stated) | -13 | 5 | 100 | 103
NS(=O)(=O)c1ccc(Cl)cc1Sc1ccccc1C(=O)O | -2 | 3 | 100 | 107
O=C(/C=C/c1ccco1)OCC(=O)N1CCCc2ccccc21 | -5 | -19 | 103 | 112
Cc1cc(N(Cc2ccc(Cl)cc2)C(=O)c2ccc(Cl)cc2)no1 | -12 | -11 | 104 | 102
Cc1cc(C)cc(C(=O)OCC(=O)c2c(N)n(C)c(=O)n(C)c2=O)c1 | -14 | -45 | 103 | 115
O=S1(=O)CC(O)C(NCc2ccco2)C1 (configuration not stated) | . | 5 | 102 | 108
N#CCCn1cc(C(=O)O)c(-c2ccccc2)n1 | -15 | . | 103 | 95
COc1ccc(-c2nc(CC(=O)NCC(c3ccco3)N(C)C)cs2)cc1 (configuration not stated) | -40 | -5 | 108 | 108
O=C(N/N=C/C1CC=CCC1)c1ccccc1 (configuration not stated) | -7 | -30 | 101 | 99
Cc1nc2c(=O)n(C)c3c(c(=O)n(C)c(=O)n3C)c2o1 | 4 | -10 | 102 | 106
CC(C)(C)C(=O)CSc1nnc(-c2ccccc2)o1 | -9 | -36 | 97 | 107
O=C(NCc1csc(-c2cccs2)n1)Nc1ccc(F)cc1F | 110 | -4 | 99 | 98
Cc1cc(C)c(Nc2n[nH]c(=O)[nH]2)cc1C | 29 | 2 | 98 | 103
CCN1C(=O)/C(=C2\C=Cc3cc(C)ccc3N2CC)OC1=S | -10 | -1 | 103 | 98
COc1ccc(C=Nc2cccc(C(N)=O)c2)cc1OC | -9 | 3 | 100 | 100
Cc1ccc2c(c1)NC(SCC(=O)NCc1ccccc1)=NS2(=O)=O | -10 | 0 | 103 | 102
O=C(c1cccc2ccccc12)N1CCCc2ccccc21 | . | -40 | 102 | 104
COc1ccc(CNC(=O)c2c(O)nc3scc(C)n3c2=O)cc1 | 6 | 0 | 103 | 101
Cc1ccc(/C=C/C(=O)NCC(c2ccco2)N2CCCC2)o1 (configuration not stated) | 2 | 3 | 107 | 117
CSc1ccc(/C=C/C(=O)N2CCC(C(N)=O)CC2)cc1 | 100 | -10 | 107 | 105
Cc1nc2nc(C(F)(F)F)[nH]c2cc1Br | 70* | -32 | 104 | 102
O=C(CSc1nc2cc(Cl)ccc2o1)c1ccc(F)cc1 | -9 | . | 101 | 97
O=C(c1cc2ccccn2n1)N1CCC2(CC1)OCCO2 | -5 | -7 | 102 | 108
N#C/C(=N\Nc1ccc(S(N)(=O)=O)cc1)C(=O)Nc1ccc(S(N)(=O)=O)cc1 | -6 | -31 | 99 | 102
O=C(Cn1cccc1C(=O)c1ccccc1)NCc1ccco1 | 8 | -13 | 103 | 103

Screening results (PubChem BioAssay)
